# Screening results from PubChem BioAssay.
# EPAC1 ag val = human EPAC1 agonism, validation. EPAC1 Rap1b BODIPY-GDP exchange, fluorescence. Potency, µM, for inactives: max response, positive = active, most hits filed as activators. 16,000 tested, 1% active. AID 1645883; active means well fitted activation curve with a large enough effect; inconclusive means small, poorly fitted or top-dose-only effect; inactive means no such curve, though single readings can be large or run the other way;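 further: nearly all actives have a fitted effect of over 70% in size; series mostly up to about 76 or 150 µM; scaled to a cAMP control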
# Target sequence (O95398 whole entry, looked up): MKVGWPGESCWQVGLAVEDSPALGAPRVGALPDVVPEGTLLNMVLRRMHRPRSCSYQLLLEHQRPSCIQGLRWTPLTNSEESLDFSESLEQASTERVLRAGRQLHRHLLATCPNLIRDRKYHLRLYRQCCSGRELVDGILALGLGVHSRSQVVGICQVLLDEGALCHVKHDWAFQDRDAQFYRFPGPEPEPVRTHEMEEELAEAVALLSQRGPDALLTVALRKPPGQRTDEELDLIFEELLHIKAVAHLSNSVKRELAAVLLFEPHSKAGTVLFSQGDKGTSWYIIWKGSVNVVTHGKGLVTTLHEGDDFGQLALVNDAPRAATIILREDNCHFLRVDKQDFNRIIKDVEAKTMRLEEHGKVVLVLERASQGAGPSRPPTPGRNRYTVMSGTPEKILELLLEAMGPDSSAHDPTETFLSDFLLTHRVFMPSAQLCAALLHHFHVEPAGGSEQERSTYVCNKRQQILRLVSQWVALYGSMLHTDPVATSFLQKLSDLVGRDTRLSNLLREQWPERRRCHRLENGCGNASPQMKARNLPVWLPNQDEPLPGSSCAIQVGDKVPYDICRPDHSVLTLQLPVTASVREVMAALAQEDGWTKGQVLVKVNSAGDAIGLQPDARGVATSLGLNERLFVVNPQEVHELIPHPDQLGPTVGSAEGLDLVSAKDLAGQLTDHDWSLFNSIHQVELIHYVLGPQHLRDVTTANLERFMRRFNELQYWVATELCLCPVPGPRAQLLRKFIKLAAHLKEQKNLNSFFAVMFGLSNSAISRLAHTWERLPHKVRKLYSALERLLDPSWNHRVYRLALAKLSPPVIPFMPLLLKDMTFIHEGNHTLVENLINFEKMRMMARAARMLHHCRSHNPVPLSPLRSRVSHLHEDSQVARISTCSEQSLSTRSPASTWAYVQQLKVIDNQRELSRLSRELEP
# An asterisk follows results filed as active; ? = inconclusive; & = joins results of further samples; [ ] = dose if it differs, or a comment. On the % scale 0 is the no-effect control and ±100 the full control effect; potency means the concentration at half of the fitted maximal effect. Some of the compounds tested; the hit share may differ from the screen's.
SMILES,EPAC1 ag val
O=C(O)Cc1cccnc1C(=O)O,-7%&5%
CCCCCl,-43%[inhibitor]
CC(=O)O[C@@H]1CN2CCC1CC2,7%
CC(=O)[C@H]1CC[C@H]2[C@@H]3CC[C@H]4C[C@H](O)CC[C@]4(C)[C@H]3C(=O)C[C@]12C,1%&-12%
COc1cc2c3cc1Oc1c(OC)c(OC)cc4c1C(Cc1cccc(c1)Oc1ccc(c(O)c1)CC3N(C)CC2)N(C)CC4 (stereo not given),31%
CCCCCCCCCC(=O)O[C@H]1CC[C@H]2[C@@H]3CCC4=CC(=O)CC[C@@H]4[C@H]3CC[C@]12C,-40%[inhibitor]
CCCN1CCC[C@H](c2cccc(O)c2)C1,2%&-18%
C=C1C2CC[C@@]3(C)C(c4ccoc4)OC(=O)C[C@@]13OC1CC(=O)C(C)(C)C(C(OC(C)=O)C(=O)OC)[C@@]12C (stereo not given in full),15%
c1cc2c(c(NC3=NCCN3)c1)CCCC2,-16%
COc1ccc(C[C@H]2NC[C@H](O)[C@@H]2OC(C)=O)cc1,0%
Cc1ccc2c(c1)[C@]13CCCC[C@@H]1[C@H](C2)N(C)CC3,20%
O=C1c2ccccc2-c2cccc3cccc1c23,112µM*
CCS(=O)(=O)Nc1cccc(C(=C2CCCCC2)c2cnc[nH]2)c1,0%
O=C1CN(O)C(c2ccccc2)=c2cc(Cl)ccc2=N1,-4%
c1cnc(N2CC3(CCNCC3)C2)nc1,?
O=C(CCCN1CCC(n2c(=O)[nH]c3ccccc32)CC1)c1ccc(F)cc1,-38%[inhibitor]
O=C1/C(=C\c2ccccc2)C[C@@]2(O)[C@H]3Cc4ccc(O)c5c4[C@@]2(CCN3CC2CC2)[C@@H]1O5,24%
NCCc1ccc(O)cc1,5%&10%&-7%&-9%
C[C@]12CCC3C(CC[C@]4(O)C[C@@H](O)CC[C@]34C=O)[C@@]1(O)CC[C@@H]2C1=CC(=O)OC1 (stereo not given in full),-13%
c1ccc2c(c1)OCC(C1=NCCN1)O2 (stereo not given),1%&1%
COC(=O)[C@@H]1[C@H]2CC[C@@H](C[C@H]1OC(=O)c1ccccc1)N2C,-15%
O=C(Oc1ccccc1)N1CCC2(CCCN(Cc3ccccc3)C2)CC1,-5%
CN1CC[C@]23c4c5ccc(O)c4O[C@H]2[C@@H](O)C=C[C@H]3[C@H]1C5,3%
N#Cc1nn(-c2c(Cl)cc(C(F)(F)F)cc2Cl)c(N)c1S(=O)C(F)(F)F (stereo not given),-28%&-150%&-119%
CCCCOC(=O)c1ccccc1C(=O)OCCCC,-71%[inhibitor]
CCCCc1ccc(C(=O)O)nc1,-1%&7%&-7%
Cc1sc2ccccc2c1CC1=NCCN1,0%
Clc1cnc(Oc2ccc(Oc3ncc(Cl)cc3Cl)cc2)c(Cl)c1,-6%&-2%
CCCC[N+]1(C)C2CC(OC(=O)[C@H](CO)c3ccccc3)CC1C1OC12 (stereo not given in full),-13%
COc1cc(N)c(Cl)cc1C(=O)NC1CN2CCC1CC2 (stereo not given),6%
O=C(O)[C@@H]1CSC(c2cccnc2)N1 (stereo not given in full),-13%
CCC1C(C)=NN=C(c2ccc(OC)c(OC)c2)c2cc(OC)c(OC)cc21 (stereo not given),-14%
COc1ccc(C(=O)CN2CCOCC2)cc1,22%
CCOC(=O)/C=C(C)/C=C/C[C@@H](C)CCCC(C)C,-29%
C=C[C@H]1CN2CC[C@H]1C[C@H]2[C@H](OC(=O)OCC)c1ccnc2ccc(OC)cc12,-18%
CS(=O)(=O)N1CCC2(CCCN(Cc3ccncc3)C2)CC1,16%
O=C(c1csnn1)N1CCC[C@@]2(CCN(Cc3ccncc3)C2)C1,-63%[inhibitor]
C[C@@H](N)Cn1ccc2cc(F)c(Cl)cc21,-9%
CCCN(CCC)[C@H]1CCc2c(F)ccc(O)c2C1,-8%
CN1c2ccccc2C(NCCCCCCC(=O)O)c2ccc(Cl)cc2S1(=O)=O (stereo not given),-17%
N[C@@H](CCCCP(=O)(O)O)C(=O)O,3%
CN1C[C@H](C(=O)N[C@]2(C)O[C@@]3(O)[C@@H]4CCCN4C(=O)[C@H](Cc4ccccc4)N3C2=O)C=C2c3cccc4[nH]cc(c34)C[C@H]21,?
CN(C(=O)Cc1ccccc1)[C@H](CN1CCCC1)c1ccccc1,-11%&8%
COc1ccc(CC2c3cc(OC)c(OC)cc3CCN2C)cc1OC (stereo not given),4%
CCn1cnc2c(Nc3cccc(Cl)c3)nc(N[C@@H]3CCCC[C@@H]3N)nc21,1%
CC(C)=CCCC1(C)C=Cc2c(O)c3c(c(CC=C(C)C)c2O1)OC12C(=CC4CC1C(C)(C)OC2(C/C=C(/C)C(=O)O)C4O)C3=O (stereo not given),-187%[inhibitor]
CC(C)[C@@]1(NC(=O)[C@@H]2C[C@@H]3c4cccc5[nH]cc(c45)C[C@H]3N(C)C2)O[C@@]2(O)[C@@H]3CCCN3C(=O)[C@H](Cc3ccccc3)N2C1=O,15%&26%&6%&7%&10%
CCC(N)Cc1c[nH]c2ccccc12 (stereo not given),6%&-3%
CCC1C2CC3C4N(C)c5ccccc5[C@]45CC(C2C5O)N3C1O (stereo not given in full),1%
CC(C)(C)c1cc(O)ccc1O,?
C[C@]12CC[C@H]3[C@@H](CCC4=CC(=O)CC[C@@]43C)[C@@H]1CC[C@@H]2OC(=O)CCc1ccccc1,21%
Cn1cc(C2=C(c3cn(C4CCN(Cc5ccccn5)CC4)c4ccccc34)C(=O)NC2=O)c2ccccc21,17%
Cc1noc(C)c1C(=O)N1CCC[C@@]2(CCN(CC(C)C)C2)C1,-55%[inhibitor]
Clc1ccccc1-c1cncnc1NCCc1cnc[nH]1,-22%
O=c1ccc2cc(O[C@H]3OC(CO)C(O)C(O)C3O)c(O)cc2o1 (stereo not given in full),-3%&14%
c1ccc2c(c1)Sc1ccccc1N2C[C@@H]1CN2CCC1CC2,7%
CC(C)NC(=O)N1CCC2(CC1)CCN(C(=O)Oc1ccccc1)CC2,-67%[inhibitor]
CCCCCCCCCCCCCCCC[N+](C)(C)C,-47%&-43%[inhibitor]
NC(=O)CS(=O)C(c1ccccc1)c1ccccc1 (stereo not given),-5%&-52%
Cc1ccccc1-n1c(C)nc2ccccc2c1=O,-9%&-7%

# Next section
SMILES,EPAC1 ag val
O=C(O)c1nn(Cc2ccc(Cl)cc2Cl)c2ccccc12,1%&-18%&6%
Nc1nc(N)nc(NC2CC2)n1,-11%
CN(C)c1ccc(C=C2C(=O)NC(=O)NC2=O)cc1,25%
CCOCCOC(C)=O,11%
c1csc(CN2CC3(CCNCC3)C2)n1,-26%
N#Cc1c(Cl)cccc1Cl,3%
CCC1(c2cccc(O)c2)CCCCN(C)C1 (stereo not given),-43%[inhibitor]
N[C@@]1(C(=O)O)CC[C@H](C(=O)O)C1,6%&4%&-13%
CCCN(C/C=C\I)[C@@H]1CCc2ccc(O)cc2C1,10%
CC(C)(O)[C@@H]1C2OC(=O)[C@@H]1[C@]1(O)C[C@H]3O[C@]34C(=O)O[C@H]2[C@]14C (tested in a mixture with another compound),3%
CO[C@]12CC[C@@]3(C[C@@H]1[C@](C)(O)C(C)(C)C)[C@@H]1Cc4ccc(O)c5c4[C@@]3(CCN1CC1CC1)[C@H]2O5,-132%[inhibitor]
ClCCN(CCCl)/C(=C\c1ccccc1)c1ccnc2ccccc12,22%
N#Cc1ccc(CN2CC[C@@]3(CCCNC3)C2)cc1,-38%[inhibitor]
O=C(O)c1ccc(NC(=O)N2C[C@H]3C[C@@H](C2)c2cccc(=O)n2C3)cc1,9%
C[C@@H]1CN(C2CCC(C#N)(c3ccc(F)cc3)CC2)CC[C@]1(C(=O)O)c1ccccc1 (stereo not given in full),-23%
N[C@@H](Cn1ccc(=O)[nH]c1=O)C(=O)O,-18%
[N-]=[N+]=NCCN1CCC(O)CCC1=O (stereo not given),11%
O=c1ccc2cc(OC3OC(CO)C(O)C(O)C3O)c(O)cc2o1 (stereo not given),-14%
CC(C)n1cnc2c(C(=O)N[C@H]3CN4CCC3CC4)cc(Cl)cc21,9%
CCCCC/C=C\C/C=C\C/C=C\C/C=C\CCCC(=O)NCC(=O)O,8%&-39%
Clc1ccc2c(c1)C(c1ccccc1)=NCc1nncn1-2,3%
CN1CCC(c2c[nH]c3ccc(O)cc23)CC1,4%&-22%&8%
COc1nc(NC(C)C)nc(NC(C)C)n1,16%
c1cnc(N2CC[C@@]3(CCCNC3)C2)nc1,2%
Cl.Cl.Cl.Cl.Cl.Cl.N.N.N.N.NNNNN.NNNNN.O.O.[Ru].[Ru].[Ru],-15%
CC1=NN=C(c2ccc(N)cc2)c2cc3c(cc2C1)OCO3,5%&3%
C[C@@H]1[C@H](O)[C@@H](C)C=CC=CCCC=CC=CC=CC=C[C@H](O[C@H]2O[C@@H](C)[C@H](O)[C@@H](N)[C@@H]2O)CC2O[C@](O)(C[C@@H](O)[C@H](O)CC[C@@H](O)C[C@@H](O)C[C@@H](O)CC(=O)O[C@H]1C)C[C@H](O)[C@H]2C(=O)O,21%
CN[C@@H]1C[C@@H](c2ccc(Cl)c(Cl)c2)c2ccccc21,-10%&-7%
CC[C@H]1[C@@H]2C[C@H]3[C@@H]4N(C)c5ccccc5[C@]45C[C@@H](C2[C@H]5O)N3[C@@H]1O (stereo not given in full),-4%
COC1C(O)C(C)O[C@@H](OC2CC[C@@]3(C)C4CC[C@]5(C)C(C6=CC(=O)OC6)CC[C@@]5(O)C4CC[C@@H]3C2)C1O (stereo not given in full),-16%
CN(C)CCN(C)CCc1ccc(Cl)c(Cl)c1,-3%&-15%
CC(C)C1C(=O)N2CCC[C@H]2[C@]2(O)O[C@](NC(=O)[C@@H]3C=C4c5cccc6[nH]cc(c56)C[C@H]4N(C)C3)(C(C)C)C(=O)N12 (stereo not given in full),-3%
C[C@@]12CCC3C(CCC4=CC(=O)CC[C@]43C)C1CCC2O (stereo not given in full),-112%[inhibitor]
CCOP(=S)(OCC)Oc1cc(C)nc(C(C)C)n1,1%
NC(=O)OCCCc1ccccc1,-4%
COc1cc2nc(N(C)C)c(CNCCc3c[nH]c4ccccc34)cc2c(OC)c1OC,-1%
COc1ccc2c(c1)C13CCCCC1C(C2)N(C)CC3 (stereo not given),5%
CNC(C)C(O)c1ccc(O)cc1 (stereo not given),-4%&2%
CCN[C@@H](C)Cc1ccccc1,9%
C[C@]12CCC3C(C=CC4=CC(=O)CC[C@]43C)C1CC[C@]2(O)CCC(=O)O (stereo not given in full),?
Clc1ccccc1Cl,-36%[inhibitor]
NCC(N)C(=O)c1ccccc1 (stereo not given),-11%
O=C(NCNC(=O)NC1C(=O)NC(=O)N1CO)NC1C(=O)NC(=O)N1CO (stereo not given),-71%[inhibitor]
O=[N+]([O-])c1c2ccccc2cc2ccccc12,-15%
NCc1cc(=O)[nH]o1,1%&-24%&-16%
CC(N)[C@H](O)c1ccccc1 (stereo not given in full),-56%[inhibitor]
CN1C(=O)COc2c(C(=O)N[C@@H]3CN4CCC3CC4)cc(Cl)cc21,8%
O[C@H]1[C@H]2[C@H](O)CCCN2C[C@H]1O,-12%
O=C(O)COc1nc(Cl)c(Cl)cc1Cl,15%
CC1(C)C(C=C(Cl)Cl)C1C(=O)OC(C#N)c1cccc(Oc2ccccc2)c1 (stereo not given),?
C[C@]12CCC(=O)C=C1CCc1ccc(O)cc12,14%
C=CCN1CC[C@]23CCCC[C@H]2[C@H]1Cc1ccc(O)cc13,-18%
CC(=O)Oc1ccc(Cl)c2cccnc12,15%
CC[C@H](C)[C@H](NC(=O)[C@@H]1CCCN1C(=O)[C@H](CCC(=O)O)NC(=O)[C@@H](NC(=O)[C@H](Cc1ccccc1)NC(=O)[C@@H]1CCCN1C(=O)[C@@H](N)Cc1ccc(O)cc1)C(C)C)C(=O)O,-7%
C=C1CC[C@@]2(O)[C@H]3Cc4ccc(O)c5c4[C@@]2(CCN3CC2CC2)[C@H]1O5,-5%
C#CCOC(C(=O)OCCN(C)C)(c1ccccc1)c1ccccc1,-13%
COC(=O)CN1CN(c2ccccc2)C2(CCN(Cc3ccc4ccccc4c3)CC2)C1=O,?
CC(C)C[C@H](NC(=O)[C@H](Cc1ccccc1)NC(=O)CNC(=O)CNC(=O)[C@@H](N)Cc1ccc(O)cc1)C(=O)N[C@@H](CCCN=C(N)N)C(=O)N[C@@H](CCCCN)C(=O)N[C@@H](Cc1ccc(O)cc1)C(=O)N1CCC[C@H]1C(=O)N[C@@H](CCCCN)C(=O)O,-17%
O=C(CS(=O)C(c1ccccc1)c1ccccc1)NO (stereo not given),2%
Nc1ccc(Cl)cc1,-14%

# A second format for some results above:
Structure	EPAC1 ag val
CCOC(=O)/C=C(C)/C=C/C[C@@H](C)CCCC(C)C	-29%
CC(C)=CCCC1(C)C=Cc2c(O)c3c(c(CC=C(C)C)c2O1)OC12C(=CC4CC1C(C)(C)OC2(C/C=C(/C)C(=O)O)C4O)C3=O (stereo not given)	-187%[inhibitor]
CCCN(CCC)[C@H]1CCc2c(F)ccc(O)c2C1	-8%
c1csc(CN2CC3(CCNCC3)C2)n1	-26%
CCS(=O)(=O)Nc1cccc(C(=C2CCCCC2)c2cnc[nH]2)c1	0%
CCn1cnc2c(Nc3cccc(Cl)c3)nc(N[C@@H]3CCCC[C@@H]3N)nc21	1%
CCC1(c2cccc(O)c2)CCCCN(C)C1 (stereo not given)	-43%[inhibitor]

# Carrying on.
SMILES,EPAC1 ag val
CN(C)C(=S)SSC(=S)N(C)C,-20%&7%
Cc1o[nH]c(=O)c1C[C@@H](N)C(=O)O,1%
C=C1[C@@H](O)C2C=CC[C@H](C)C(=O)[C@@](C)(O)C=C[C@@H](OC(C)=O)[C@@]23C(=O)N[C@H](Cc2ccccc2)[C@@H]3[C@@H]1C (stereo not given in full),-18%
O=C(C[C@@H]1NCCC[C@H]1O)Cn1cnc2cc(Br)c(Cl)cc2c1=O,-16%

# Among those listed so far, these contain a tert-butyl group:
SMILES,EPAC1 ag val
CC(C)(C)c1cc(O)ccc1O,?
CO[C@]12CC[C@@]3(C[C@@H]1[C@](C)(O)C(C)(C)C)[C@@H]1Cc4ccc(O)c5c4[C@@]3(CCN1CC1CC1)[C@H]2O5,-132%[inhibitor]
